Sfp PPTase inh: Sfp phosphopantetheinyl transferase inhibition; Q9F4F7; Biochemical Sfp PPTase activity, qHTS; Potency, µM, without a hit: max response, negative = inhibition, usual class: inhibitors; 310,000 tested, 3.5% active; AID 1490; active = well fitted inhibition curve with a large enough effect; inconclusive = small, poorly fitted or top-dose-only effect, or another doubt; inactive = no such curve, though single readings can be large or run the other way;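 also: the enzyme is Sfp with the accession as filed and its product quenches rhodamine fluorescence; potency is read from the fitted curve at half-maximal effect; 0% = enzyme reaction without inhibitor and -100% = no enzyme wells; top concentration of the series not given in the record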
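Reaction rates are the 30-min fluorescence difference (ex 525, em 598 nm) in wells containing 15 nM Sfp, 5 uM rhodamine-CoA and 12.5 uM BHQ-2-YbbR at pH 7.6 with 10 mM MgCl2.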
PINK1 expr mod: changes PINK1 expression; PINK1 immunofluorescence, high-content cytometry, 24 h; Potency, µM (highest dose often 76.6 µM), for the others: at the top dose activation (PINK1 increase), actives largely listed as activators; 410,000 tested, 0.2% active; AID 624263; active = well fitted activation curve with a large enough effect; inconclusive = small, poorly fitted or top-dose-only effect; inactive = flat fitted curve, though single readings scatter; cell line not stated here;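 also: potency is read from the fitted curve at half-maximal effect; % of control where 0% means no effect; nearly all actives have a fitted effect of over 65% in size; a mitochondrial uncoupler was the plate control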
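A stable cell line was treated with compounds at 5 concentrations for 24 hours, with CCCP as control. PINK1 levels and mitochondrial localization were measured by immunofluorescence with mitochondrial, cell and nuclear markers after fixation, read by laser-scanning cytometry.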
D2 ag: human D2 receptor agonism in beta-arrestin assay; P14416; DiscoveRx PathHunter D2 beta-arrestin, luminescence, 90 min; 100% = 57 uM dopamine signal; activation, % (no concentration beside the values); 360,000 tested, 0.084% active; in the data active = activation above about 40%; inconclusive = about 15% to 40%; inactive = below about 15%; also: compound concentration not given in the record; the text of the record calls up to 30% inactive
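DiscoveRx PathHunter D2 beta-arrestin cells (2,100/well) attached overnight, then compound-stimulated 90 min at 37 C in HBSS/10 mM HEPES/0.1% Tween-20 buffer; beta-galactosidase complementation read by luminescence after 1 h at ambient temperature. Dopamine 57 uM final (EC100) as control.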
TRPV1 potentiator: enhances activation of the human vanilloid receptor TRPV1 | TRPV1-expressing cells, Fluo-8 calcium influx, capsaicin EC20 potentiation; host cell line not named in the record; control for the full effect not named in the record | potentiation, % at 8.33 µM | 320,000 tested, 0.02% active; active means potentiation above 80%; inconclusive means 30% to 80%; inactive means below 30%; also: 0% is about no effect
Target sequence (Q8NER1 whole entry, looked up): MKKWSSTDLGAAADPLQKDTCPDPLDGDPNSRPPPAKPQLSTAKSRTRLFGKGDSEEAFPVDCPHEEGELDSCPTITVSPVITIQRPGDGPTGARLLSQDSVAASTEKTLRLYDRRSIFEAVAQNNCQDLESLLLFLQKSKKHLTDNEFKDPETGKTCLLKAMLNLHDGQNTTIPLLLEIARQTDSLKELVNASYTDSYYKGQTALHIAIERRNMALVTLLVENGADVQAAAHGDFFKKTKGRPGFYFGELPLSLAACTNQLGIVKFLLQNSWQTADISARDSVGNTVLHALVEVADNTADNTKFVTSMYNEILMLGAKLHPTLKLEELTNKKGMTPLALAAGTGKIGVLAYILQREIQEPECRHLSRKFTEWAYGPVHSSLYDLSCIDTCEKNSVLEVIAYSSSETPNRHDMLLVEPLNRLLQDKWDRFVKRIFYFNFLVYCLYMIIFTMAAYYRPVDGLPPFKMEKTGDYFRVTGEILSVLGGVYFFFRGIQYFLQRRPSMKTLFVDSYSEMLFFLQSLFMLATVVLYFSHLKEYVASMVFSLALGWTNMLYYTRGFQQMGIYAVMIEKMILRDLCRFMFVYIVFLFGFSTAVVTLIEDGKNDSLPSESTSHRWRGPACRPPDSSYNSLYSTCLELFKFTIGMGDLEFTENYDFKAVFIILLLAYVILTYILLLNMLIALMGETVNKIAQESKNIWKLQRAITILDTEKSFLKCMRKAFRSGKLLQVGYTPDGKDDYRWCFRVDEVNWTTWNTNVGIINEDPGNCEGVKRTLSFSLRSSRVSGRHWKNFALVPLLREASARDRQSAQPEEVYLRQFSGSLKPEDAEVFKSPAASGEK
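Fluo-8 calcium influx in TRPV1-expressing cells, kinetic read (ex 480/em 520 nm). Compound added and read 3 min for agonist activity, followed by capsaicin at EC20 final and 2 min further read for enhancement.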
CtBP-E1A inh: inhibitors of CtBP/E1A interaction. AlphaScreen GST-E1A/His-CtBP binding, 1536-well; hits give low values; control for the full effect not named in the record. activity change, % (concentration not given with the values). 340,000 tested, 0.49% active; in the data active means activity change below about -65%; inconclusive means about -30% to -65%; inactive means above about -30%; also: % is scaled to controls: 0 for no effect and ±100 for the full control effect
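Homogeneous bead-based format: GST-tagged E1A captured on glutathione donor beads, His-tagged CtBP on nickel acceptor beads; compounds precede bead addition by 2 h at 37 °C.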
D2 PAM: potentiates the human D2 dopamine receptor allosterically; P14416; DiscoveRx D2 beta-arrestin cells, luminescence, 90 min; 100% = 57 uM dopamine signal; potentiation, % (test concentration not listed); 360,000 tested, 0.23% active; active = potentiation of 50% or more; inconclusive = 30% to 50%; inactive = 30% or less;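 also: compound concentration not given in the record; tested on top of an EC20 dose of dopamine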
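PathHunter D2 cells, attached overnight at 37 deg C, received compound in DMSO plus dopamine at EC20 (50 nM final) for 90 min at 37 deg C. Beta-arrestin recruitment was read as luminescence after 1 h with detection reagent at ambient temperature.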
Six1-Eya2 blk: inhibitors of human Six1/Eya2 interaction; AlphaScreen GST-Six1/His-Eya2 binding, biochemical; hits give low values; control for the full effect not named in the record; activity change, % (test concentration not listed); 360,000 tested, 0.56% active; in the data active = activity change below about -65%; inconclusive = about -30% to -65%; inactive = above about -30%; also: % is scaled to controls: 0 for no effect and ±100 for the full control effect; compound concentration not given in the record
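GST-Six1 + His-Eya2 (5X stock: 250/500 nM); Tris pH 8.0, 300 mM NaCl, 0.05% BSA, 0.02% Tween 20; GSH donor/Ni acceptor beads; 1 h 37 °C dark; AlphaScreen readout.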
* hit, by the source's call; ? = inconclusive; · = no result given; [ ] = another dose, or the depositor's remark. An unsorted share of the library; any-hit rate near 3.7%.

SMILES	Sfp PPTase inh	PINK1 expr mod	D2 ag	TRPV1 potentiator	CtBP-E1A inh	D2 PAM	Six1-Eya2 blk
Cc1cc(C2CC(=O)Nc3ccccc3S2)c(C)s1 (stereo not given)	12%	3.9%	-2.8	-8	-7	-3	-4
COc1ccc(N(C(=O)c2cccnc2)S(=O)(=O)c2ccc(Cl)cc2)cc1	6%	-0.5%	-3.0	-7	-1	-1	-4
COc1ccc(S(=O)(=O)N2CCC(C(=O)NC3CC(C)(C)NC(C)(C)C3)CC2)cc1	10%	1.2%	0.1	4	3	-2	1
S=c1[nH]nc(COc2ccc(Cl)cc2)o1	?	-13%[38.3 µM]	-1.8	-4	4	-7	2
CSCCC(=O)N1CCN(CC(=O)N2CCCC2)CC1	1%	0.4%	-3.0	6	-8	-8	7
O=P(CCCO)(Cc1ccccc1)Cc1ccccc1	-2%	3.5%	2.4	-10	-3	-6	6
S=C1NCCc2ccc(Cl)cc2C1c1ccccc1Cl (stereo not given)	13%	3.2%	-9.8	6	-1	-49	-7
COc1cc(/C=C/C(=O)OCC(=O)Nc2cc(S(=O)(=O)N3CCCCC3)ccc2C)ccc1O	15%	4.0%	-1.5	0	-16	-3	0
Cc1cc(-c2nc(C)c(C(=O)NNS(=O)(=O)c3ccc(Cl)cc3Cl)s2)no1	-30%	8.9%	3.7	4	0	-5	4
CCOC(=O)C1CCCN(C(=O)c2cc(S(=O)(=O)Nc3ccccc3OC)ccc2C)C1 (stereo not given)	23%	0.1%	-1.4	2	40	2	18
CCOC(=O)C1=CCN(S(=O)(=O)c2ccc(Br)cc2)C1c1ccc(C)cc1 (stereo not given)	·	3.4%	-1.5	·	-8	-7	18
Cn1cnnc1SCC(=O)NCCC1=CCCCC1	·	-1.8%	0.3	·	-2	-6	11
Fc1ccccc1CNc1ccc(Cl)c(Cl)c1	10%	?	-1.5	6	33	-11	29
CCOc1cc(N2CCOCC2)c(OCC)cc1NC(=O)C(C)Oc1ccccc1 (stereo not given)	·	-0.1%	-0.5	·	-29	-3	-26
COC(=O)c1[nH]c2ccc(C)cc2c1NC(=O)CN1CCC(C)CC1	8%	0.7%	-1.6	-17	0	-9	3
Cc1ccc(C(c2nnnn2Cc2cccs2)N2CCN(C(=O)c3ccco3)CC2)cc1 (stereo not given)	-23%	-2.8%	-4.1	-12	-2	-12	-4
CC(=O)N1CCN(c2ccc(NC(=O)c3cc(Cl)ccc3Cl)cc2)CC1	4%	5.4%	-1.4	-2	2	2	2
COc1ccc(CNC(=O)C2CCCN(S(=O)(=O)c3cnc[nH]3)C2)cc1 (stereo not given)	-13%	2.6%	-0.3	-2	-1	-5	-4
COc1cc2sc3cc(NCCCN4CCOCC4)ccc3c(=O)c2cc1OC	·	-1.0%	7.2	·	?	-15	-25
COC(=O)N(NC(=O)C(O)(C(C)C)C(C)C)c1ccccc1	5%	0.6%	2.3	-4	5	-8	2
CC(=O)Nc1ccc(NC(=O)CC2SC(=O)N(CC(=O)c3ccccc3)C2=O)cc1 (stereo not given)	-9%	0.4%	-5.1	-12	-2	-6	0
Clc1cccc(-c2ccc3nccn3c2)c1Cl	·	-1.4%	-1.2	·	-12	-16	-1
O=C(COc1coc(CN2CCN(c3ccccc3)CC2)cc1=O)Nc1ccccc1	·	3.9%	9.3	-2	0	-31	-2
Cc1cc(/C=N/NC(=O)c2cccc([N+](=O)[O-])c2)c(C)n1-c1ccc(Cl)cc1Cl	-1%	-0.8%	-1.2	-9	-17	-17	-9
CC(=O)Nc1ccc(S(=O)(=O)NC2CC(=O)N(c3ccc(C)c(C)c3)C2)cc1 (stereo not given)	·	4.6%	1.1	4	-1	6	-3
CSCCC(NS(=O)(=O)c1ccccc1F)C(=O)NCCCn1nc(C)cc1C (stereo not given)	·	1.7%	-4.3	2	6	-1	2
CCCCC(=O)N(C)c1c(CC)nc2c(OCc3ccccc3C)cccn12	·	1.5%	-4.5	·	-3	-10	0
CS(=O)(=O)/C(C#N)=C/c1cccn1S(=O)(=O)c1ccc([N+](=O)[O-])cc1	·	0.3%	10	·	1	25	-5
COc1ccc(-n2cnc3sc(-c4ccccc4)cc3c2=O)cc1	2%	·	0.9	1	7	7	3
CCC1=NN(C(=O)CCc2ccccc2O)C(O)(C(F)(F)F)C1 (stereo not given)	29%	3.7%	0.7	0	3	-8	3
COc1ccccc1NC(=O)CSc1ccc2nnc(CCNC(=O)c3ccccc3)n2n1	21%	0.3%	-2.9	-4	-4	-3	4
O=C(NCC1CCOCC1)c1ccc2nc(Cc3cccc(Cl)c3)oc2c1	11%	3.4%	-4.9	-21	-3	-5	-6
CC1(C)CC[C@]2(C(=O)O)CC[C@]3(C)C(=CC[C@@H]4[C@@]5(C)CC[C@H](O[C@@H]6O[C@H](C(=O)O)[C@@H](O)[C@H](O[C@@H]7OC[C@H](O)[C@H](O)[C@H]7O)[C@H]6O)C(C)(C)[C@@H]5CC[C@]43C)[C@@H]2C1	·	-1.0%	7.1	·	-12	0	-18
Cc1cc(C)c2c(N)c(C(=O)NC3CC3)sc2n1	-9%	0.4%	-1.8	-8	-1	-27	3
CN(C)/N=C/c1ccc(P(c2ccc(/C=N/N(C)C)o2)c2ccc(/C=N/N(C)C)o2)o1	9%	0.7%	-8.2	8	?	-19	?
Cc1cccc([C@H](NC(=O)OC(C)(C)C)C(=O)OC(C)(C)C)c1	·	9.0%	-2.1	-21	4	0	15
CC1CCCC(NC(=O)CN2C(=O)c3cccnc3Oc3ccc(Cl)cc32)C1C (stereo not given)	5%	-1.8%	-3.2	-1	3	-5	-3
COc1cc(C(=O)NC2=NCCS2)ccc1OCc1c(C)noc1C	9%	2.0%[38.3 µM]	-0.5	7	-1	1	0
Clc1cccc(Nc2nc(N3CCOCC3)nc(N3CCOCC3)n2)c1	1%	1.0%	2.1	-5	8	-29	18
CCN(CC(=O)Nc1c(F)cccc1F)C(=O)c1ccc(-c2ccc(C(C)=O)cc2)o1	·	0.9%	-1.4	-4	-13	1	-7

Part of the list above, as labelled records:
CN(C)/N=C/c1ccc(P(c2ccc(/C=N/N(C)C)o2)c2ccc(/C=N/N(C)C)o2)o1
  Sfp PPTase inh: 9% | PINK1 expr mod: 0.7% | D2 ag: -8.2 | TRPV1 potentiator: 8 | CtBP-E1A inh: ? | D2 PAM: -19 | Six1-Eya2 blk: ?
Cc1cccc([C@H](NC(=O)OC(C)(C)C)C(=O)OC(C)(C)C)c1
  Sfp PPTase inh: · | PINK1 expr mod: 9.0% | D2 ag: -2.1 | TRPV1 potentiator: -21 | CtBP-E1A inh: 4 | D2 PAM: 0 | Six1-Eya2 blk: 15
CC1CCCC(NC(=O)CN2C(=O)c3cccnc3Oc3ccc(Cl)cc32)C1C (stereo not given)
  Sfp PPTase inh: 5% | PINK1 expr mod: -1.8% | D2 ag: -3.2 | TRPV1 potentiator: -1 | CtBP-E1A inh: 3 | D2 PAM: -5 | Six1-Eya2 blk: -3
COc1cc(C(=O)NC2=NCCS2)ccc1OCc1c(C)noc1C
  Sfp PPTase inh: 9% | PINK1 expr mod: 2.0%[38.3 µM] | D2 ag: -0.5 | TRPV1 potentiator: 7 | CtBP-E1A inh: -1 | D2 PAM: 1 | Six1-Eya2 blk: 0

Next section.
SMILES	Sfp PPTase inh	PINK1 expr mod	D2 ag	TRPV1 potentiator	CtBP-E1A inh	D2 PAM	Six1-Eya2 blk
CCN1CCc2c(sc(N)c2C(N)=O)C1	50µM*	4.6%	-2.3	1	-4	15	-9
COc1ccccc1NC(=O)Cn1c(O)c(N=NC(=O)c2ccccc2O)c2ccccc21	-56%	2.4%	?	10	2	9	-2
CCOc1ccc(N(CC(=O)NCCSc2ccccn2)S(C)(=O)=O)cc1	15%	1.5%	-2.6	-2	2	-14	-2
CC1CC(=O)N(CC(=O)Nc2ccc(F)cc2F)c2ccccc2S1(=O)=O (stereo not given)	19%	-0.5%	1.1	-30	7	0	5
COc1cccc(-n2c(SCC(=O)NC3CCCCC3)nc3n[nH]c(C)c3c2=N)c1	0%	-0.1%	-1.8	1	-67*	?	-67*
O=c1ccc(/C=C/c2ccccc2)nn1Cc1ccccc1	3%	4.6%	-3.6	-3	11	9	6
Cn1c(=O)c2c3c(sc2n2cnnc12)CCC3	-10%	-1.3%	-1.7	25	-15	-1	-26
c1cc2c3c(cccc3c1)NC(c1ccc3c(c1)OCO3)N2	-22%	-1.1%	44*	0	·	3	-5
COc1ccc(NS(=O)(=O)c2cc(OCC(N)=O)c(C)cc2Cl)cc1	6%	-1.3%	-1.5	10	1	-4	5
CC(=O)c1ccc(Oc2cc(C)nc(-n3nc(C)cc3C)n2)cc1	8%	11%	-6.0	-14	-3	-7	-6
CC(C)CC(NC(=O)C1CCC(C)CC1)C(=O)NCc1ccccn1 (stereo not given)	2%	0.3%	-4.0	-10	0	-10	0
CC(C)(C)OC(=O)Nc1ccc([C@@H](NC(=O)OC(C)(C)C)C(=O)OC(C)(C)C)cc1	·	1.3%	0.1	-12	0	6	8
O=C1C(N2CCOCC2)=C(n2nnc3ccccc32)C(=O)c2ccccc21	-24%	2.4%	9.3	19	-16	16	-17
O=C(Nc1nccs1)c1ccc(-c2ccc(Cl)cc2)o1	-4%	3.6%	0.9	-3	-7	-3	5
Cn1c(SCC(=O)Nc2sccc2C#N)nnc1-c1ccccc1	2%	12%	-0.6	20	-13	-10	-8
CCc1ccc(NC(=S)N(CCCN2CCOCC2)Cc2ccco2)cc1	9%	-1.0%	-0.9	-8	-3	-5	3
COc1ccc(OCC(=O)Nc2ccc(NC(=O)c3cccs3)c(OC)c2)cc1	12%	-0.2%	-3.9	-11	3	-3	6
Cc1oc2c(c1C(=O)NCc1cccnc1)C(=O)c1ccccc1C2=O	0%	3.0%	?	6	-15	25	-8
CCC(C)Sc1cc(C)c(C#N)c2nc3ccccc3n12 (stereo not given)	?	0.5%	-1.9	-19	0	-25	2
O=C(CSc1nnc(-c2ccccc2)c(-c2ccccc2)n1)N1CCOCC1	6%	1.6%	-4.5	-23	-3	-23	-3
CCOC(=O)C1CCN(c2ncnc3c2[nH]c2cccc(OC)c23)CC1	0%	-0.3%	-4.0	-7	0	-20	-18
Cc1ccccc1OCC(=O)OCC(=O)NC1CCCC(C)C1C (stereo not given)	·	-0.6%	-2.7	·	0	-14	-5
COc1ccc(C(=O)Nc2nc(N)n(-c3ccccc3)n2)cc1	8%	1.5%	-1.2	3	-1	15	-4
O=C(Cc1ccccn1)c1ccccc1	·	1.2%	-2.4	-10	2	-11	1
O=C(Nc1ccc(Br)cc1)c1cccc2c1C(=O)N(C1CCCCC1)C2	6%	3.2%	-5.6	17	1	-7	-1
CCOC(=O)CCc1c(C)c2ccc(OCC(=O)OC(C)C)cc2oc1=O	10%	-2.3%	-1.3	8	-4	-4	6
